Screening data as filed in PubChem BioAssay.
StopGo FLuc: lowers the firefly signal of an FMDV 2A StopGo reporter. Potency, µM (highest dose often 57.5 µM), for the others: top-dose signal change, negative = less light. HEK cells with a luciferase reporter of 2A StopGo recoding. 120,000 tested, 0.23% active; active = well fitted falling curve with a large enough effect; inconclusive = small, poorly fitted or top-dose-only effect; inactive = no such curve, though single readings can be large or run the other way; note: nearly all actives have a fitted effect of over 60% in size; overnight with compound
2A Renilla: lowers the Renilla signal of an FMDV 2A StopGo reporter; 120,000 tested, 0.32% active; HEK cells with a luciferase reporter of 2A StopGo recoding; Potency, µM (top dose mostly 57.5 µM), without a hit: top-dose signal change, negative = less light; active means well fitted falling curve with a large enough effect; inconclusive means small, poorly fitted or top-dose-only effect; inactive means no such curve, though single readings can be large or run the other way; note: nearly all actives have a fitted effect of over 55% in size; overnight with compound
* = called active by the depositor; ? = inconclusive; [ ] = dose if it differs, or a comment. % is set by controls: 0 for no effect and ±100 for the full control effect; potency is the fitted concentration of half-maximal effect. An unsorted share of the library, and some 0.55% of all compounds hit somewhere here.

Sample of the layout:
Compound | 2A Renilla | StopGo FLuc
Cn1nnc2c(N3CCN(c4cccc(Cl)c4)CC3)ncnc21 | 76%[activator] | -20%
CCCCN(C)C(=O)C1CCN(Cc2ccccc2)CC1 | -3% | 9%
O=C(NCC12CC3CC(CC(C3)C1)C2)c1cc2nc(-c3ccc(F)cc3)cc(C(F)(F)F)n2n1 | -2% | -17%

Main list, repeating the preview:
Compound | 2A Renilla | StopGo FLuc
Cn1nnc2c(N3CCN(c4cccc(Cl)c4)CC3)ncnc21 | 76%[activator] | -20%
CCCCN(C)C(=O)C1CCN(Cc2ccccc2)CC1 | -3% | 9%
O=C(NCC12CC3CC(CC(C3)C1)C2)c1cc2nc(-c3ccc(F)cc3)cc(C(F)(F)F)n2n1 | -2% | -17%
CCCCc1nn2cc(-c3ccc(CC)cc3)nc2s1 | 12% | 197%[activator]
CCN(Cc1ccc(Br)s1)C(=O)Cn1nnc(-c2cccc(Cl)c2)n1 | 7% | 7%
COc1ccc(CNC(=O)C(=O)Nc2c3c(nn2-c2ccccc2)CSC3)cc1 | -13% | 3%
Cc1ccc(-n2ncc(C(=O)NCCN3CCOCC3)c2C2CCN(C(=O)OC(C)(C)C)CC2)c(C)c1 | 10% | -19%
O=C(O)CCNS(=O)(=O)c1ccc(C(=O)/C=C/c2ccccc2Cl)cc1 | -7% | 12%
CCOc1ccc(-c2nc(C#N)c(NCCCN(CC)CC)o2)cc1 | -2% | 17%
Cc1cn2c(=O)c(S(=O)(=O)N3CCN(c4cc(Cl)ccc4C)CC3)c(C)nc2s1 | 7% | -2%
O=C(c1ccccc1)N1c2nc(-c3ccco3)nn2C2(CCCCC2)[C@@H]2CCCC[C@@H]21 | -4% | -19%
Cn1nnnc1SCCCNCc1cc(Cl)ccc1OCc1ccccc1 | -4% | 1%

Three records picked at random from the list so far, as already listed:
Compound | 2A Renilla | StopGo FLuc
Cc1ccc(-n2ncc(C(=O)NCCN3CCOCC3)c2C2CCN(C(=O)OC(C)(C)C)CC2)c(C)c1 | 10% | -19%
CCN(Cc1ccc(Br)s1)C(=O)Cn1nnc(-c2cccc(Cl)c2)n1 | 7% | 7%
Cn1nnnc1SCCCNCc1cc(Cl)ccc1OCc1ccccc1 | -4% | 1%

Remaining list, next part:
Compound | 2A Renilla | StopGo FLuc
O=S(=O)(Nc1cccc(-c2ccc(N3CCCCCC3)nn2)c1)c1ccccc1F | 73%[activator] | 114%[activator]
N#Cc1ccc(-c2ccc(OCCOc3ccccc3Cl)cc2)cc1 | -14% | 0%
COc1ccc2c(CSc3nc4nc(C)cc(C)n4n3)cc(=O)oc2c1 | 17% | 4%
CC(C)OC(=O)Cn1c(C2CC(=O)N(Cc3ccc(F)cc3)C2)nc2ccccc21 (stereo not drawn) | -5% | 6%
O=C(Cn1nc(C(=O)O)c2ccccc2c1=O)c1ccc(F)cc1 | -7% | -3%
COC(=O)c1ccc(C(=O)OC)c(NC(=O)CSc2ccc3c(c2)OCCO3)c1 | -1% | 3%
CCOC(=O)COc1ccc2cc(-c3ccc(Cl)cc3)c(=O)oc2c1 | -6% | 0%
Cc1ccccc1S(=O)Cc1ccc(C(=O)NC2CCCCCC2)o1 (stereo not drawn) | -6% | -23%
CCN(c1ccc(NC(=O)CSc2ncnc3ccccc23)cc1)C(C)C | -8% | 4%
O=C(CSc1nc2ccccc2s1)Nc1ccc2c(c1)CCC2 | 0% | 32%[activator]
COc1c(C)cccc1C(=O)Nc1ccc(-c2nc3ccccc3s2)c(Cl)c1 | -2% | 9%
COc1ccc(NC2=C(c3ccc(C(F)(F)F)cc3)C(=O)c3ccccc32)cc1 | -5% | -5%
Cc1ccc2nc(N(CCCN(C)C)C(=O)c3ccc(Br)s3)sc2c1 | 17% | ?
Cc1ccc(NC(=O)C2CCCN(S(=O)(=O)c3ccc(C)cc3)C2)cc1 (stereo not drawn) | -6% | -20%
COc1cccc(Cn2c(SCC(=O)N3CCN(c4ccc(F)cc4)CC3)nc3ccccc32)c1 | 0% | -8%
CCSc1nc2cn(CC)nc2c(=O)n1Cc1ccc(C)cc1 | 4% | 41%[activator]
CCOC(=O)c1ccc(Oc2nc(N3CCOCC3)nc(N3CCOCC3)n2)cc1 | -3% | 0%
O=C(O)C(c1c[nH]c2cc(OCc3ccccc3)ccc12)N1CCN(Cc2ccccc2)CC1 (stereo not drawn) | -1% | 5%
O=C(COc1cccc(Cl)c1)N1CCN(CCc2ccncc2)CC1 | -12% | -13%
N#Cc1ccc(C(=O)Nc2cc3nn(-c4ccccc4)nc3cc2Cl)c(F)c1 | -6% | 41%[activator]
Cn1cnc(S(=O)(=O)N2CCC(C(=O)NCc3ccc(F)cc3)CC2)c1 | 1% | -4%
COc1ccc(C2(CNC(=O)C(=O)Nc3ccc(C)c(Cl)c3)CCCC2)cc1OC | -8% | -24%
Cc1ccc(CN(CC(=O)NCC2CCCO2)C2CC2)cc1 (stereo not drawn) | 3% | 11%
CC(c1cccs1)N(C)C(=O)Cc1n[nH]c(=O)c2ccccc12 (stereo not drawn) | 34%[activator] | 179%[activator]
Cn1nc(CC(=O)Nc2ccc(OC(=O)c3ccccc3)cc2)c2ccccc2c1=O | -2% | 1%
CC1Cc2ccccc2N1S(=O)(=O)c1ccc(Cl)cc1F (stereo not drawn) | 19% | 13%
O=S(=O)(c1ccc(Br)cc1)N1CCn2cccc2C1c1ccc(Br)cc1 (stereo not drawn) | 21% | -11%
Cc1cccc(CNC(=O)Cn2ccc3cc(S(=O)(=O)N4CCCC4)ccc32)c1 | 26% | 1%
COc1ccc(-c2noc(C(C)NC(=O)c3ccco3)n2)cc1 (stereo not drawn) | ? | ?
Cc1c(Br)cnn1CCc1nnc(Nc2ccn(Cc3ccccc3Cl)n2)s1 | ? | ?
C[C@@H]1CN(c2c(F)c(F)c3c(=O)c(C(=O)O)cn(C4CC4)c3c2F)C[C@H](C)N1 | -2%[23.8 µM] | -7%[27 µM]
C/C(=N/Nc1ccc(S(=O)(=O)Nc2ccc(C)cc2C)cc1[N+](=O)[O-])c1ccc(C)c([N+](=O)[O-])c1 | 33%[activator] | -6%
CCNC(=O)c1ccccc1SCC | -9% | 11%
CCOC(=O)Cn1nc(-c2ccc(C)cc2)c2ccccc2c1=O | 10% | 17%
CCOc1ccc(NCc2cccn2-c2nnc(N3CCC(C(=O)NC4CC4)CC3)s2)cc1 | -4% | 2%
O=C(Nc1cccc(Cl)c1)N(Cc1cccc(O)c1)C1CCC(O)CC1 (stereo not drawn) | 2% | 20%
CC(Nc1ccc2oc(C(C)(C)C)nc2c1)C(=O)N1CCNC1=O (stereo not drawn) | 29% | 173%[activator]
CCCC1N=C2c3ccccc3N=C(SCC(=O)Nc3ccccc3)N2C1=O (stereo not drawn) | 220%[activator] | 55%[activator]
COC(=O)c1cc(C)nc2c1c(=O)nc(SCc1c(C)cc(C)cc1C)n2C1CC1 | ? | ?
Cc1ccc(C)c(CN2CCC(CNC(=O)Nc3ccc(Br)cc3F)CC2)c1 | -12% | -16%
COCCn1c(C)c(C)c(S(=O)(=O)c2ccc(F)cc2)c1NC(=O)c1cccs1 | 37%[activator] | -4%
COc1cccc(CNC(=O)COc2cc(=O)n(C)c3ccccc23)c1 | 10% | 14%
CCN1C(=O)N/C(=C/c2cn(CC(=O)Nc3ccc(F)cc3)c3ccccc23)C1=O | -1% | -6%
C(=C\c1ccccc1)/CN(C/C=C/c1ccccc1)CC1CCCO1 (stereo not drawn) | 22% | 0%
NC(=O)c1ccsc1NC(=O)CSc1ccc2ccccc2n1 | ? | -21%
O=C(Cn1nc(-c2cccc([N+](=O)[O-])c2)c2ccccc2c1=O)Nc1cccc(Cl)c1 | -6% | 1%
CCc1cccc(NC(=O)Cn2nc(C)c3sc4ccccc4c3c2=O)c1 | -5% | -11%
Cc1ccc(Nc2nnc(-c3ccc(C)c(S(=O)(=O)NC(C)(C)CO)c3)c3ccccc23)c(C)c1 | 84%[activator] | -14%
Cn1c(=O)n(C)c2cc(Sc3ccccc3Cl)c(NC(=O)C3CC3)cc21 | 43%[activator] | 0%
Cc1ccc(-c2cc(C(=O)Nc3cccnc3)[nH]n2)c(O)c1C | 14% | 223%[activator]
Cn1c(=O)c2c(-c3ccccc3Br)[nH]cc2n(C)c1=O | -12% | 5%
COc1ccc(-c2cc(C(=O)Nc3sc4c(c3C(N)=O)CCCC4)no2)cc1 | 0% | 31%[activator]
CCc1ccc(CNC(=O)C(C)n2ccc3cc(S(=O)(=O)N4CCCCCC4)ccc32)cc1 (stereo not drawn) | 92%[activator] | -15%
CC1CCc2c(sc(NC(=O)Cn3nnc(-c4ccc(C(F)(F)F)cc4)n3)c2C#N)C1 (stereo not drawn) | -7% | -13%
CCCNC(=O)c1cc(C)nc2ccc(C)cc12 | 2%[1.06 µM] | -9%
COc1cccc(N2CCN(C(=O)c3cn(-c4ccccc4)nc3-c3cccnc3)CC2)c1 | 28% | 60%[activator]
CCn1c2ccccc2c2cc(NC(=O)COc3cc(C)ccc3C)ccc21 | -4% | -9%
N#C/C(=C\c1cccc([N+](=O)[O-])c1)c1ccc([N+](=O)[O-])cc1 | -1% | 34%[activator]
COc1ccc(-c2nc(CNC(=O)Nc3ccc(C)cc3)c(C)o2)cc1 | 15% | 25%
CCN(CC)CCn1c(C)c(C)c2c1ncn1nc(CSc3nc4ccccc4o3)nc21 | -7% | -10%

Next records.
Compound | 2A Renilla | StopGo FLuc
COc1ccc(OCC(C)CN2CCC(C(O)(c3ccccc3)c3ccccc3)CC2)cc1 (stereo not drawn) | 4% | -4%
COC(=O)c1ccn(Cc2cccc(Cl)c2)n1 | 1% | 128%[activator]
CC(=O)Oc1ccc2cc(-c3ccccc3)c(=O)oc2c1 | 15% | 129%[activator]
CCS(=O)(=O)N1CCC(C(=O)Nc2ccc(Oc3ccccc3OC)cc2)CC1 | -18% | 5%
Cn1cc(S(=O)(=O)c2ccc(Cl)cc2)c(=O)c2cc(F)c(N3CCOCC3)cc21 | 105%[activator] | 42%[activator]
Cc1nc(NC(C)(C)C)sc1C(=O)Nc1ccccc1 | 21% | 126%[activator]
Cc1c(Cl)cccc1NC(c1ccc(F)cc1)c1nnc(-c2ccccc2)o1 (stereo not drawn) | 25% | 2%
COc1cc(C(CC(=O)Nc2cc(C)ccc2C)N2Cc3ccccc3C2=O)cc(OC)c1OC (stereo not drawn) | 212%[activator] | 15%
Cc1cccc(C(=O)OCC(=O)Nc2ccccc2N2CCCC2=O)c1O | -7% | -8%
O=c1oc2cc(O)ccc2cc1-c1nnc(Nc2ccccc2Cl)s1 | 15% | 189%[activator]
CCOc1ccc(NC(=O)Cn2c(=O)n(Cc3ccco3)c(=O)c3ccc(C(=O)NC4CCCC4)cc32)cc1 | -3% | -9%
Cc1ccc(NC(=O)CN(c2ccc(C)cc2)S(=O)(=O)c2cccc3nonc23)cc1 | 126%[activator] | -19%
COC(=O)c1cc(NC(=O)CCC2CCCCC2)cc(C(=O)OC)c1 | 5% | 9%
COc1ccc(C(=O)Oc2ccccc2Cl)cc1 | 2% | -1%
NCc1cccc(NC(=O)c2ccncc2)c1 | -3% | -3%
O=C1CCCC2=C1C(c1cccs1)CC(=O)N2c1ccc(C(F)(F)F)cc1 (stereo not drawn) | -5% | -10%
Cc1ccc(-n2nc3c(=O)n(CC(=O)NCc4ccco4)nc(C)c3c2C)cc1 | 14% | -8%
Cc1cc(C)cc(-n2ccn3c(SCC(=O)c4ccc(Br)cc4)nnc3c2=O)c1 | -14% | -10%
CCCCCCOc1ccc(C(=O)O)cc1Br | -3% | 47%[activator]
CCc1ccccc1N(CC)C(=O)c1cc2c(s1)-c1ccccc1OC2 | 9% | -9%
Cc1ccccc1OCCOC(=O)c1ccc2nccnc2c1 | -2% | 41%[activator]
O=C1c2ccccc2C(=Cc2ccc(Cl)cc2)c2ccccc21 | ? | 59%[activator]
COc1ccc(NC(=O)CSc2n[nH]c(-c3ccccc3)n2)cc1Cl | 13% | 7%
Cc1cc(C(=O)COC(=O)Cc2n[nH]c(=O)c3ccccc23)c(C)n1CC(F)(F)F | 4% | 62%[activator]
CCCNC(=S)Nc1cc(C)cc(C)c1 | 227%[activator] | 13%
Cc1c(C(=O)N2CCCCCC2)c(S(=O)(=O)N(Cc2ccccc2)C(C)(C)C)c(C)n1C | -6% | -23%
CCc1ccc(NS(=O)(=O)c2ccc3c(c2)C(C)(C)C(=O)N3)cc1 | 34%[activator] | ?
Cc1c(NC(=O)Nc2ccccc2C(F)(F)F)sc2nc3n(c(=O)c12)CCC(C)CC3 (stereo not drawn) | -10% | -9%
Cc1c(C)[n+](=O)c(-c2ccc(Cl)cc2)c(C)n1[O-] | -5% | -4%
Cc1ccc(CNC(=O)Cn2c(=O)ccc3cc(S(=O)(=O)N4CCC(C)CC4)ccc32)o1 | 35%[activator] | -13%
O=C(COc1cccc(Cl)c1)N(Cc1ccco1)c1ccccn1 | 61%[activator] | 156%[activator]
CCC(C)C(=O)N1CCCCC1CC (stereo not drawn) | 6% | 2%
CSc1cccc(NC(=O)Cn2c3c(c(=O)n2-c2ccccc2)Cc2ccccc2O3)c1 | 4% | 37%[activator]
CN(Cc1ccc(OC(F)F)cc1)C(=O)c1nn(Cc2ccccc2)c(=O)c2ccccc12 | 65%[activator] | -3%
O=C1CCCC2=C1C(c1ccsc1)CC(=O)N2c1ccc(C(F)(F)F)cc1 (stereo not drawn) | 10% | -1%
CCOc1c(Br)cc(C(=O)Nc2ncccc2C)cc1OC | 23% | 9%
CCCN(C)Cc1ccc(C(=O)OC)cc1 | 2% | -5%
